# Assay outcomes (PubChem)
# MbtI inh = MbtI salicylate synthase inhibitors, primary screen, biochemical, fluorescence intensity. P9WFX0. purified MbtI enzyme, fluorescence intensity read-out. inhibition, %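 (about 17 µg/mL by stock and volumes)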. actives 0.89% (n = 100,000). AID 493033, 2011;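 active means above 50% in both replicates, above 80% if mildly self-fluorescent; inactive means the rest, strongly fluorescent compounds included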;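 further: 0% = mean of negative and 100% = mean of positive controls; one replicate is shown; some compounds called inactive have numbers as strong as hits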
# Polio RdRp inh = poliovirus RdRp elongation inhibitors, primary screen, biochemical, fluorescence polarization, total intensity. Genome polyprotein (Poliovirus type 1 (strain Mahoney)), P03300. poliovirus polymerase elongation; hits give low values. % elongation, % (compound at 16.7 µg/mL). actives 0.66% (n = 150,000); in the data active means % elongation below about 90%; further: some results filed as inactive read as strong as hits
# Target sequence (P03300 1749-2209 limits assumed): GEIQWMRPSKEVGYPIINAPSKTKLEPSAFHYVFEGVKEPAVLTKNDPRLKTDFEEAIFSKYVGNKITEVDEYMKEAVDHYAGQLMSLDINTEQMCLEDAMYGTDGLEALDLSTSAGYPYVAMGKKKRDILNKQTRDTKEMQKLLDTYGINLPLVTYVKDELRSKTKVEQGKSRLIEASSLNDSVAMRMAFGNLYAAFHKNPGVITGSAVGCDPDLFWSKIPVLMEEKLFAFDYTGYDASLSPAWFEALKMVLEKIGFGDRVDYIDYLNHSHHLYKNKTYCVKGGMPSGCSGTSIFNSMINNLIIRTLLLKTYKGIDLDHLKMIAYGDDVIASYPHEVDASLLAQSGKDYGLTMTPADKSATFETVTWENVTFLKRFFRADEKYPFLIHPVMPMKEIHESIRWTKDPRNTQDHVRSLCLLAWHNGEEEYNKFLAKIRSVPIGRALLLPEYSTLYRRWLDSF
# MenB inh = M. tuberculosis MenB inhibitors, primary screen, biochemical, absorbance; actives 0.43% (n = 100,000); inhibition, %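 (about 12 µg/mL by stock and volumes)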; MenB enzyme assay, absorbance read-out; some hits fall short of the stated cut; 1,4-dihydroxy-2-naphthoyl-CoA synthase (Mycobacterium tuberculosis (strain ATCC 25618 / …; AID 540299, 2011;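 active means mean of two replicates above 30%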;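 further: 0% = no compound and 100% = wells with inactive enzyme; the first replicate is given; strong numbers were not always called active; inactives centre near -10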
# Target sequence (P9WNP5 whole entry, looked up): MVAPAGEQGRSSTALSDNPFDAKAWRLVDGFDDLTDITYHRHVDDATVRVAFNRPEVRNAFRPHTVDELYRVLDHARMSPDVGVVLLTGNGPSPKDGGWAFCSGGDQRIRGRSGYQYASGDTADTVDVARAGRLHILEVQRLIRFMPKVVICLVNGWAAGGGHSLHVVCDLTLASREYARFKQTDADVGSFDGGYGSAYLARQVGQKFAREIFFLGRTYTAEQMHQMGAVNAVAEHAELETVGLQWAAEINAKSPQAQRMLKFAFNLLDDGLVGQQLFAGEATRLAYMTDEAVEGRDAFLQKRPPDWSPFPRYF
# Polio RdRp inh intensity = recorded beside Polio RdRp inh, whose call it bears; % elongation; measured here: total intensity read-out; formula for this scale not given here;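 total fluorescence in place of polarization; lower means less elongation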
# An asterisk follows results filed as active; . = not tested or not shown.
SMILES,MbtI inh,Polio RdRp inh,Polio RdRp inh intensity,MenB inh
CC(C(=O)Nc1ccc(F)cc1Cl)N(C)CC1COc2ccccc2O1 (configuration not stated),1.6,98.0,97.0,-22.2
O=C(COC(=O)c1ccccc1NCc1ccco1)c1ccc(Cl)cc1,-37.0,106.0,106.0,-29.7
CC(C)(C)NC(=O)NCc1n[nH]c(=O)c2ccccc12,1.0,107.0,108.0,-16.7
O=C(COc1ccccc1)OCC(=O)c1ccc(O)cc1O,11.2,104.0,107.0,-26.7
O=C(CC1SC(=NCC2CCCO2)NC1=O)Nc1cccc2ccccc12 (configuration not stated),-4.8,105.0,105.0,4.6
Cc1csc(NC(=O)c2c(O)c3cccc4c3n(c2=O)CCC4)n1,2.3,101.0,103.0,-2.4
NC(N)=NS(=O)(=O)c1ccc(NC(=O)/C=C/C(=O)O)cc1,.,101.0,108.0,-8.4
Cn1cc(C(=O)N2CCN(Cc3ccccc3)CC2)c2c3ccccc3n(C)c2c1=O,117.8,102.0,103.0,-5.3
COc1ccc(N2CCN(C(=O)CSc3nnc4c5ccccc5n(CC(=O)O)c4n3)CC2)cc1,0.4,103.0,103.0,-18.4
Oc1ccccc1/C=N/c1nc2ccccc2[nH]1,1.9,99.0,103.0,-2.0
O=C(CCn1c(=O)oc2ccccc21)Sc1ccc(C(F)(F)F)cc1,70.7*,98.0,98.0,-0.6
CSC(=S)n1c2ccccc2c2ccccc21,-5.2,102.0,103.0,.
CCOC(=O)/C(C#N)=C1/C=CN(C)C=N1,-206.8,102.0,104.0,-32.4
COc1cc(OC)cc(C(=O)N(C)C2(c3ccccc3Cl)CCCCC2=O)c1 (configuration not stated),-5.0,103.0,100.0,.
Cc1ccsc1C(=O)OCC(=O)Nc1ccc2[nH]c(=O)[nH]c2c1,-9.3,109.0,101.0,0.7
Cc1noc(C)c1S(=O)(=O)NCC1COc2ccccc2O1 (configuration not stated),6.2,107.0,98.0,7.8
Cc1cc(C)n(-c2nncn2/N=C/c2ccc(N3CCCCC3)s2)n1,7.0,106.0,105.0,-191.3
CCOC(=O)n1c(CC#N)nc2ccccc21,-22.6,107.0,119.0,-15.9
CC1CCc2c(sc3ncn(-n4cccc4)c(=O)c23)C1 (configuration not stated),1.2,99.0,104.0,-8.3
CCSC1=NC2(CCNCC2)N=C1c1ccc(OC)cc1,4.8,104.0,104.0,-3.2
Cc1ccc(Cl)cc1N1CCN(C(=O)C2(c3ccccc3)CC2)CC1,0.6,106.0,103.0,5.7
Cn1cnc(S(=O)(=O)NCC2CCN(C(=O)OC(C)(C)C)CC2)c1,-6.8,100.0,105.0,8.1
COC(=O)c1ccc(NCC(=O)c2ccccc2)cc1,48.6,101.0,102.0,-8.6
O=C(Cc1ccc(Cl)cc1)Nc1cccc(-c2ccc(N3CCOCC3)nn2)c1,12.3,101.0,105.0,1.3
C1=CCC(CNCc2ccc3c(c2)OCO3)CC1 (configuration not stated),0.4,105.0,104.0,-22.2

# (cont.)
SMILES,MbtI inh,Polio RdRp inh,Polio RdRp inh intensity,MenB inh
NC(CCc1nc2ccccc2[nH]1)C(=O)O (configuration not stated),-13.7,100.0,104.0,-16.1
O=C(/C=C/c1cccc(Oc2ccccc2)c1)N1CCOCC1,.,110.0,110.0,-19.3
Cc1cc2c(cn1)C(=Nc1ccccc1C)c1ccccc1-2,.,100.0,103.0,-14.9
O=C(O)CN1CCCC1=O,-10.4,100.0,100.0,1.6
COc1ccc(OC)c(S(=O)(=O)N(C)Cc2ccccc2)c1,3.3,99.0,100.0,-5.3
O=C(CCCn1sc2ccccc2c1=O)NC1CCCC1,17.5,101.0,102.0,-4.5
NC(N)=N/N=C/c1cccs1,8.9,102.0,103.0,-16.7
CCOc1ccc(NC(=O)CCn2c(=O)sc3ccccc32)cc1,62.8,98.0,101.0,-22.4
N#Cc1cnn(-c2ncnc3c2cnn3-c2ccccc2)c1N,-0.4,103.0,106.0,-17.6
O=C(c1ccc(CSc2cccc3cccnc23)cc1)N1CCOCC1,.,104.0,106.0,-6.7
O=S(=O)(c1ccc(Oc2ncnc3sc4c(c23)CCC4)cc1)N1CCOCC1,0.2,106.0,111.0,-33.6
COc1cc2c(cc1OC)C(CC(=O)Nc1ccccc1)C(=O)NN=C2C (configuration not stated),-4.4,105.0,100.0,-42.3
Cc1cccc(CN2CCN(C(=O)CC(C)C)CC2)c1,.,101.0,94.0,-9.4
CCC(Oc1ccccc1)C(=O)NCc1ccccn1 (configuration not stated),.,103.0,110.0,-5.5
CCOc1ccc(C(=O)N2CCc3cc(OC)c(OC)cc3C2)cc1,-52.8,101.0,106.0,-1.9
CC(C)(C)c1cc(C(C)(C)C)c(O)c(S(N)(=O)=O)c1,-17.9,100.0,102.0,3.0
CCOC(=O)N1CCN(C(=O)c2cc3c(s2)-c2ccc(Cl)cc2S(=O)(=O)C3)CC1,4.8,100.0,104.0,1.5
C=C1C(=O)O[C@@H]2C[C@@H](C)[C@@H]3C=CC(=O)[C@@]3(C)[C@@H](O)[C@H]12,2.4,98.0,103.0,.
CCOC(=O)c1oc2ccccc2c1NC(=O)COC(=O)CC1Sc2ccccc2NC1=O (configuration not stated),-6.0,100.0,107.0,-13.3
CCOC(=O)N1CCN(C(=O)c2ccc3c(c2)N(CC)CCS3)CC1,10.7,102.0,98.0,-29.9
COc1ccccc1Nc1ccc(N)cc1,9.2,101.0,101.0,.
C[n+]1c(CF)sc2ccccc21,96.6*,98.0,108.0,.
Clc1ccc2nc(-c3ccccc3)c(NCc3ccco3)n2c1,18.4,103.0,103.0,7.7
Cc1ccccc1NC(=O)Nc1sc2nc3n(c(=O)c2c1C)CCC(C)CC3 (configuration not stated),-10.4,105.0,108.0,12.1
CC(=O)N[C@@H](C)C(=O)NCc1cccc(C(F)(F)F)c1,-5.5,102.0,106.0,12.2

# Next section
SMILES,MbtI inh,Polio RdRp inh,Polio RdRp inh intensity,MenB inh
Cc1ccc(NC(=O)CSc2nc3ccccc3c(=O)n2CC2COc3ccccc3O2)cc1 (configuration not stated),-6.6,105.0,106.0,-6.0
Nc1c(C(=O)Nc2ccccc2)sc2nc3c(cc12)CCCCC3,1.5,104.0,104.0,-5.2
O=C(NCc1ccc2c(c1)OCO2)c1cc(=O)c2ccccc2o1,7.8,99.0,102.0,-26.1
N#Cc1ccc(C(=O)NCC(c2ccco2)N2CCCC2)cc1 (configuration not stated),-5.2,112.0,112.0,-33.2
Cc1ccc2nc(SCC(=O)c3ccc(Cl)s3)[nH]c2c1,14.9,104.0,104.0,.
O=C(CSc1nnc2ccccn12)Nc1ccccc1Cl,90.8,104.0,104.0,-0.2
Cc1ccc(C(=O)Nc2nc3ccc(S(N)(=O)=O)cc3s2)cc1C,-61.9,100.0,103.0,-23.6
Cc1cc(C)n2nc(SCCCC(=O)N3CCOCC3)nc2n1,12.8,104.0,106.0,-10.9
NS(=O)(=O)c1ccc(NC(=S)N2CCC(Cc3ccccc3)CC2)cc1,28.3,92.0,90.0,-33.3
O=C(COC(=O)C12CC3CC(CC(C3)C1)C2)Nc1ccc(Cl)cc1,-7.1,100.0,103.0,.
Nc1ncnc2cccc(F)c12,-17.8,104.0,106.0,-5.8
Cc1nn(C)cc1C(C(=O)NC1CCCCC1)N(CCc1ccccc1)C(=O)c1cnccn1 (configuration not stated),-8.2,104.0,101.0,-21.5
O=C(NN1CCOCC1)c1ccc(=O)n(Cc2ccccc2)n1,-0.5,99.0,103.0,2.6
CC(C)CNC(=O)CSc1ccc(S(=O)(=O)N2CCN(C)CC2)cn1,1.9,104.0,102.0,-20.3
c1ccc2c(c1)COC(CN1CCCC1)OC2,-8.0,106.0,102.0,-12.6
COC(=O)c1c(C)[nH]c(C(=O)C(C)N2CCc3ccccc3C2)c1C (configuration not stated),2.4,99.0,102.0,-0.2
O=c1oc(-c2ccccc2)nc2ccc(O)cc12,-114.2,101.0,104.0,-86.0
Cc1cc(C)n2nc(SCCN3C(=O)c4ccccc4S3(=O)=O)nc2n1,-5.0,103.0,101.0,11.9
Cc1nc(-c2cc(C(=O)O)n(C)c2)cs1,19.0,99.0,98.0,3.4
Nn1c(COc2ccccc2F)nnc1SCCN1C(=O)c2ccccc2C1=O,19.8,102.0,93.0,9.1
CCC(C)N(C(=O)CSc1ccc(NC(C)=O)cc1)C1CCS(=O)(=O)C1 (configuration not stated),9.4,96.0,96.0,18.6
O=C(OCC1CCCCC1)c1n[nH]c2ccccc12,44.8,96.0,98.0,-49.2
C1=C(c2cccs2)CC(c2cccs2)=NN=C1c1cccs1,-11.4,102.0,100.0,-13.9
CCCCNC(=O)c1sc(SCC(=O)OCC)nc1N,30.9,99.0,104.0,3.2
Cc1oc(-n2c(C)ccc2C)c(C#N)c1C(C)O (configuration not stated),-2.5,109.0,105.0,-21.7

# (cont.)
SMILES,MbtI inh,Polio RdRp inh,Polio RdRp inh intensity,MenB inh
CC(C)N1CCN(C(=O)c2ccc(F)cc2)CC1,.,98.0,96.0,-4.6
CC(=O)NC(=O)/C(C#N)=N\O,9.6,100.0,102.0,12.3
Cc1ccc(-c2nc(CS(=O)(=O)CC(=O)NC3CCCCCC3)c(C)o2)cc1,0.4,100.0,104.0,-0.1
Cc1ccc(C(=O)OCC(=O)c2ccccc2)s1,-3.5,103.0,104.0,-18.7
CCN1C(=O)c2ccccc2S(=O)(=O)c2ccc(C(=O)N3CCCC3)cc21,-2.9,101.0,105.0,-1.3
O=C(OCc1nc2ccccc2c(=O)[nH]1)c1cccs1,88.3,104.0,99.0,-9.0
O=c1ccc(-c2ccc(S(=O)(=O)N3CCCC3)o2)n[nH]1,-8.4,99.0,106.0,-7.4
O=S(=O)(Cc1ccccc1)Nc1ccccc1,-3.2,98.0,102.0,6.3
O=C(c1cc(-c2ccccc2)on1)N1CCCCC1,-4.5,101.0,100.0,8.8
COc1ccc(NC(=O)COC(=O)c2cc(=O)c3ccccc3o2)cc1,-8.6,108.0,109.0,2.7
O=C(CNS(=O)(=O)c1ccc2c(c1)OCCO2)c1ccc(Cl)cc1,-1.4,96.0,100.0,-5.7
COCCNC(=O)CN1CCC(c2ccc(OC)cc2)C(O)C1 (configuration not stated),-9.1,102.0,100.0,-24.3
O=C(CCCCn1cnc2ccccc21)c1ccccc1,.,103.0,107.0,-16.0
O=C(COC(=O)c1ccccc1)c1ccccc1,-9.3,100.0,103.0,7.9
O=C(NCC1CCCO1)c1cc2sc3ccccc3c2s1 (configuration not stated),-19.9,103.0,98.0,.
CC1CCc2c(sc(/N=C/C=C/c3ccccc3)c2C#N)C1 (configuration not stated),.,106.0,102.0,-14.6
CCC(C(=O)NC(C)c1ccc2c(c1)OCO2)c1ccccc1 (configuration not stated),-3.7,101.0,102.0,-10.1
CC(=O)N1CCOc2ccc(S(=O)(=O)N(C)c3cccc(C)c3)cc21,0.5,102.0,99.0,12.0
O=C1CCc2cc(S(=O)(=O)NC(Cc3ccccc3)C(=O)Nc3ccc4c(c3)OCCO4)ccc2N1 (configuration not stated),-3.5,100.0,102.0,3.0
O=C(COC(=O)c1sc2ccccc2c1Cl)NC1CCCC1,-9.5,100.0,105.0,.
COc1cc(Cl)cc(C(=O)O)c1OCC(=O)O,-6.5,99.0,101.0,2.6
Cc1noc(C)c1CSc1ncccc1C(=O)NC1=NCCS1,10.6,102.0,92.0,-42.7
COc1ccc2ccccc2c1-c1c(OC)ccc2ccccc12,54.9,102.0,107.0,-8.3
COc1ccc(N(C)S(=O)(=O)c2ccc3c(c2)CCN3C(=O)C2CCC2)c(OC)c1,-4.5,101.0,104.0,-14.0
CC(=O)Nc1cccc(-c2cc(=O)c3ccccc3o2)c1O,.,115.0,114.0,-12.6
Cc1nnc(NC(=O)C23CC4CC(CC(C4)C2)C3)s1,-7.5,104.0,107.0,.
CCOc1ccc(CCNC(=O)c2cn(CC)c3nc(C)ccc3c2=O)cc1OCC,-8.1,102.0,106.0,6.5
O=C(NC1CCCC1)C1=COCCO1,-13.2,102.0,99.0,.
COc1ccc(C)cc1NC(=O)C(C)N1CCOCC1 (configuration not stated),-13.5,103.0,104.0,-62.7
CCCCCOc1ccc2oc(=O)c3c(c2c1)CCCN3C(=O)CN1CCOCC1,15.2,103.0,99.0,-23.4

# One compound at a time (already shown):
# Results for O=C(COC(=O)c1ccccc1)c1ccccc1 : MbtI inh: -9.3; Polio RdRp inh: 100.0; Polio RdRp inh intensity: 103.0; MenB inh: 7.9
# Results for O=c1ccc(-c2ccc(S(=O)(=O)N3CCCC3)o2)n[nH]1 : MbtI inh: -8.4; Polio RdRp inh: 99.0; Polio RdRp inh intensity: 106.0; MenB inh: -7.4
# Results for CCC(C(=O)NC(C)c1ccc2c(c1)OCO2)c1ccccc1 (configuration not stated) : MbtI inh: -3.7; Polio RdRp inh: 101.0; Polio RdRp inh intensity: 102.0; MenB inh: -10.1

# Molecules listed so far with a CF3 group (2):
SMILES,MbtI inh,Polio RdRp inh,Polio RdRp inh intensity,MenB inh
O=C(CCn1c(=O)oc2ccccc21)Sc1ccc(C(F)(F)F)cc1,70.7*,98.0,98.0,-0.6
CC(=O)N[C@@H](C)C(=O)NCc1cccc(C(F)(F)F)c1,-5.5,102.0,106.0,12.2
